# Source: PubChem
# PKD1 kinase inh = blocks activity of human protein kinase D1; Q15139; PKD1 kinase fluorescence polarization assay; inhibition, %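 (about 10 µM by stock and volumes)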; 0.056% of 200,000 active;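 active = inhibition of 50% or more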;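 also: controls were vehicle for no effect and a reference inhibitor for full effect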
# HSV replic up = HSV replication enhancement; HSV replication augmentation in cells, fold increase; maximum fold increase; 0.005% of 220,000 active;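 active = peak rise of 1.5-fold or more in the series; inconclusive = self-fluorescent or not available for retest; tested in PC3 cells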;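 also: first round at 10 µM; read as green reporter fluorescence; hits show the peak of a series up to 25 µM; 1 = signal of infected wells without compound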
# Insulin prom inh = TRM-6 insulin promoter activity inhibition; TRM-6 cells (human fetal islet line), insulin promoter-eGFP reporter, imaging; reporter expression induced with tamoxifen; inhibition, % at 2 µM; 0.9% of 130,000 active;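 active = inhibition above the mean plus 3 SD, with well images judged a real hit on visual review, cut at about 60% in these data, passing the limit was not always enough; inconclusive = inhibition over the cutoff but images rejected on review; inactive = inhibition not above the cutoff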
# RGS16-Gao = regulators of human RGS16-Galphao interaction; O15492+P09471; bead-based flow cytometry RGS16-Galphao binding, fluorescence; actives lie on both sides; binding response (% of control), % at 10 µM; 0.38% of 220,000 active; AID 1441;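 active = below 25% or above 175%, edge rows of some plates excepted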;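 also: Galphao activated by GDP with aluminum fluoride before binding; 100% = wells without compound and 0% = beads without RGS; some results beyond the cut were filed as inactive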
# Target sequence (O15492 whole entry, looked up): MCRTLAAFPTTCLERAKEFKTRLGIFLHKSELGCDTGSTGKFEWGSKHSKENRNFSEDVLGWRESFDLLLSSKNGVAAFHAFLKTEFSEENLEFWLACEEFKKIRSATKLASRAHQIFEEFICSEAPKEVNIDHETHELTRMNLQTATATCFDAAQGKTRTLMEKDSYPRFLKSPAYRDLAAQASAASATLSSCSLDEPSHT
# Target sequence (P09471 whole entry, looked up): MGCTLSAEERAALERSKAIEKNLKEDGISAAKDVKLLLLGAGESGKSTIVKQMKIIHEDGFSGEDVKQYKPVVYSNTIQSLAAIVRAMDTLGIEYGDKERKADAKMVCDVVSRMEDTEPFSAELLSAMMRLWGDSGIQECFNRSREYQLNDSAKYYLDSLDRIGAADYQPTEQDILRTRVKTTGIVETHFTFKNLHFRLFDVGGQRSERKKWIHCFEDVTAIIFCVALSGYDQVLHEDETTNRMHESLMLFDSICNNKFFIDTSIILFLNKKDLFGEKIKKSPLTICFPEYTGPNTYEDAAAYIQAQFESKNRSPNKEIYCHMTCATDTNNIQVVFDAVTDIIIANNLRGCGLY
# GALR2 agonist = agonists of human galanin receptor 2 (GALR2); O43603; GALR2-expressing cells, agonist activation read-out; activation, %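 (tested at 5 µM)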; 0.48% of 140,000 active; AID 803;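 active = above mean plus 3 SD of all compounds, about 5% in these data, not always enough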;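 also: 0% = vehicle buffer wells and 100% = reference agonist at full effect; tested in CHO reporter cells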
# Target sequence (O43603 whole entry, looked up): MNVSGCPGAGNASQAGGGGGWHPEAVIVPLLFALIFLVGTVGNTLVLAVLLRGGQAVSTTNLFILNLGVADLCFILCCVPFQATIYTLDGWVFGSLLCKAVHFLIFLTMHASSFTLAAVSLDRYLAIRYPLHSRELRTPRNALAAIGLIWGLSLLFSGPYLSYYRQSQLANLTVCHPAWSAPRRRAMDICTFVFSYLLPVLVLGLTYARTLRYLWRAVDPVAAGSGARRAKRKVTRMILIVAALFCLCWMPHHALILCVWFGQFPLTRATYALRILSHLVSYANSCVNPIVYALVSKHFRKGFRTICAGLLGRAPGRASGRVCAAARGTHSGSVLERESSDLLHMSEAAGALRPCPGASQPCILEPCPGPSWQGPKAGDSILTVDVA
# Insulin prom inh cell count = recorded beside Insulin prom inh, whose call it bears; normalized cell count, %; measured here: cell count, toxicity; reference of the scale not given here;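 cells exposed to compound for 48 h; stained nuclei by imaging scaled within each plate; lower means fewer cells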
# HSV replic up primary fold = recorded beside HSV replic up, whose call it bears; fold increase; compound at 10 µM; measured here: primary screen fold increase 10 uM; tested in PC3 cells;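 GFP signal in the first replicate; 1 = infected wells without compound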
# Starred values were filed as active, the others as inactive; i = inactive; ? = inconclusive; . = not tested or not shown; & = joins results of further samples. These rows are one share of the data; rates above refer to the full screens.
SMILES,PKD1 kinase inh,HSV replic up,HSV replic up primary fold,Insulin prom inh,Insulin prom inh cell count,RGS16-Gao,GALR2 agonist
Cn1c(O)c(C(c2ccccn2)c2c(O)n(C)c(=S)[nH]c2=O)c(=O)[nH]c1=S,-6,.,.,37,121,75,-2.4
COc1ccc(OC)c(NC2=NCCCS2)c1,2,i,1.1,24,118,98,.
COc1ccc2c(c1)CC1(CN2C)C(=O)NC(=O)N(c2ccc(F)cc2)C1=O (stereo not drawn),-14,?,.,53,83,103,-2.3
Cc1ccc(Cn2nnnc2CN2CCC(n3nnc4ccccc43)CC2)cc1,-13,i,0.91,-38,86,107,-0.7
CC(Cc1ccccc1)[n+]1cc(/N=C(\[O-])Nc2ccccc2)on1 (stereo not drawn),-4,i,0.98,-11,139,103,-2.4
O=C(Cn1cnc2ccccc2c1=O)NCCC(=O)N1CCC2(CC1)OCCO2,1,i,0.91,21,48,102,-1.1
CC(=NCc1ccc(F)cc1)c1c(O)n(C)c(=O)n(C)c1=O,7,i,0.58,-12,96,100,-1.1
CCC(=NCC1CCCO1)c1c(O)n(-c2ccc(OC)cc2)c(=O)[nH]c1=O (stereo not drawn),.,i,1,.,.,101,.
C=CCn1c(O)c(C(C)=Nc2cccc(C(F)(F)F)c2)c(=O)[nH]c1=O,.,i,0.98,.,.,102,.
C/C(=N\NP(=S)(c1ccccc1)c1ccccc1)c1ccc(O)cc1O,.,i,0.93,.,.,101,.
COc1cc(Br)cc(CN2CCN(C)CC2)c1O,-4,i,0.99,60,93,103,0.6
CCC(=NCCN1CCOCC1)c1c(O)n(-c2ccccc2C)c(=O)[nH]c1=O,3,i,0.92,.,.,150,-1.9
C=C1[C@@H](C)[C@H]2[C@H](Cc3ccccc3)NC(=O)[C@]23OC(=O)/C=C/[C@H](O)CCC[C@@H](C)C/C=C/[C@H]3[C@@H]1O,.,i,0.69,.,.,96,.
CCCC[n+]1cc(/N=C(\[O-])OC)on1,4,i,1,57,50,111,-4.5
C=CCn1c(O)c(C(C)=NCCc2ccccc2)c(=O)[nH]c1=O,1,i,1.1,0,101,99,-0.8
CCCCN1C(=O)/C(=C/C=C/c2ccco2)C(=O)NC1=S,-10,?,.,.,.,88,-0.6
O=[N+]([O-])c1ccc(N2CCNCC2)cc1N1CCCCCC1,-4,i,0.9,.,.,98,.
COc1cc(CN=C(C)c2c(O)n(C3CCCCC3)c(=O)[nH]c2=O)cc(OC)c1,.,i,0.89,.,.,103,.
CCCCOc1ccc(CN2CCN(CC)CC2)cc1,-1,i,0.92,-7,77,99,-0.3
OCCNc1c2c(nc3ccccc13)CCCC2,-13,i,0.81,23,116,105,-1.0
Cc1[nH]c2ccccc2c1CCN,0,i,1.2,16,107,100,-4.9
CN1C(=O)N(C)C(=O)C2(Cc3ccccc3N3CCCC32)C1=O (stereo not drawn),.,i,1.3,.,.,101,.
COc1ccc(CCNCc2sccc2C)cc1OC,-1,i,1.1,.,.,99,.
CN(C(=O)Oc1ccc([N+](=O)[O-])cc1)c1ccccc1,6,i,0.94,32,94,92,-1.1
Cc1cccc(-n2c(O)c(C=Nc3ccc(S(N)(=O)=O)cc3)c(=O)[nH]c2=O)c1,-3,i,0.84,11,76,110,.
# Next part.
SMILES,PKD1 kinase inh,HSV replic up,HSV replic up primary fold,Insulin prom inh,Insulin prom inh cell count,RGS16-Gao,GALR2 agonist
CC(=O)Nc1ccc(S(=O)(=O)NC(CC(=O)N2CCC3(CC2)OCCO3)C(C)C)cc1 (stereo not drawn),-5,i,0.9,3,124,110,-1.0
CCc1ccc(N2C(=O)NC(=O)C(CCc3ccncc3)(CCc3ccncc3)C2=O)cc1,0,i,0.91,-81,124,103,-1.6
O=C(Cc1ccc([N+](=O)[O-])cc1)N1CCN(Cc2ccc3c(c2)OCO3)CC1,.,i,0.95,.,.,96,.
Cc1cccc(-n2c(-c3cccs3)nc3ccccc3c2=O)c1,-1,i,1.1,-116,85,104,-1.9
Cc1cccc(N2CCc3c2nc2ccccc2c3N)c1,-15&-14,i,0.77&0.57,64,172,103&104,-2.9&-1.6
CC(=O)OC1(c2ccccc2)CCN(C)C2CCCCC21 (stereo not drawn),-7,i,0.78,31,130,102,-0.5
CN(C)c1ccc(C=C2C(=O)NC(=S)NC2=O)cc1[N+](=O)[O-],-3,i,0.9,27,173,106,.
CCC1C(c2ccccc2)NC(c2ccccc2)CC1(O)c1ccc(F)cc1 (stereo not drawn),.,i,0.92,.,.,105,.
CCC(=NCC1CCCO1)c1c(O)n(-c2ccccc2)c(=O)[nH]c1=O (stereo not drawn),-1,i,0.99,21,62,99,-0.9
CCN(C(=O)CN1CC=C(c2ccccc2)CC1)c1c(N)n(Cc2ccccc2)c(=O)[nH]c1=O,2,i,1.1,.,.,115,.
CCCCCCn1c(N)c(C(=O)NCCN2CCOCC2)c2nc3ccccc3nc21,-8,i,0.81,.,.,102,20*
CC1CCCN(CC(=O)c2ccc(Cl)c(Cl)c2)C1 (stereo not drawn),-5,i,1.1,.,.,101,.
CCN(c1ccc(C(O)(C(=O)OC)C(F)(F)F)cc1)S(=O)(=O)c1ccc(C)cc1 (stereo not drawn),10,i,0.98,20,154,106,-1.7
CC(=O)OC[C@]12CCC(C)=C[C@H]1O[C@@H]1[C@H](O)[C@@H](OC(C)=O)[C@@]2(C)[C@]12CO2,.,i,0.42,.,.,101,.
C=CCn1c(O)c(/C=C/C=Nc2ccccc2)c(=O)[nH]c1=O,-5,i,1.3,-2,97,107,0.1
CC(C)n1cc(C(=O)N(CC(=O)NC(C)(C)C)Cc2ccccc2)cn1,1,i,1.1,-139,112,101,-0.4
CC1CC2(O)c3nonc3CCC2N1O (stereo not drawn),-7,i,0.81,.,.,108,-2.0
COc1ccc(-n2c(=O)[nH]c3ccccc3c2=O)c(OC)c1,-11,i,0.96,.,.,103,-1.0
CC1CN=C(NCc2ccccc2)S1 (stereo not drawn),-1,i,0.86,-37,104,100,-1.8
C#CCN(C)C(C)Cc1ccccc1 (stereo not drawn),3,i,0.7,45,88,50,-1.4
CC(C)N1C(=O)CC2(CC[N+](C)(CCOC(=O)C(O)(c3ccccc3)c3ccccc3)CC2)C1=O (stereo not drawn),8,i,0.91,-37,129,25*,-1.8
COc1ccc(CCn2c(O)c(C=NCCCN(C)C)c(=O)[nH]c2=O)cc1OC,-13,i,0.79,22,127,94,-2.5
COc1ccc(CN2CCCC(C(=O)c3ccccc3SC)C2)cc1O (stereo not drawn),6,i,0.89,.,.,103,.
COCCN1Cc2cc(=O)n3c([nH]c4ccccc43)c2C1=N,-3,i,1,-109,102,100,.
Cc1ccc2c(c1)C1CN(C)CCC1N2C(=O)c1cccnc1Cl (stereo not drawn),.,i,1,.,.,103,.

# The final 4 records of the part above open the next one:
SMILES,PKD1 kinase inh,HSV replic up,HSV replic up primary fold,Insulin prom inh,Insulin prom inh cell count,RGS16-Gao,GALR2 agonist
COc1ccc(CCn2c(O)c(C=NCCCN(C)C)c(=O)[nH]c2=O)cc1OC,-13,i,0.79,22,127,94,-2.5
COc1ccc(CN2CCCC(C(=O)c3ccccc3SC)C2)cc1O (stereo not drawn),6,i,0.89,.,.,103,.
COCCN1Cc2cc(=O)n3c([nH]c4ccccc43)c2C1=N,-3,i,1,-109,102,100,.
Cc1ccc2c(c1)C1CN(C)CCC1N2C(=O)c1cccnc1Cl (stereo not drawn),.,i,1,.,.,103,.
CCC(COC(=O)NC)NC(=O)Oc1ccccc1 (stereo not drawn),1,i,1,-3,101,95,-2.1
COc1ccc(C(=O)C2CN(C)CC2C(=O)c2ccc(OC)cc2)cc1 (stereo not drawn),-3,i,0.99,30,115,101,-1.5
COc1cc2ccccc2cc1C(=O)Nc1ccc(Cc2ccncc2)cc1,-10,i,0.64,11,112,100,-1.8
O=C(Nc1ccccc1)c1cccn(Cc2ccccc2)c1=O,3,i,0.95,.,.,104,.
CCCC[N+]1(C)C2CC(OC(=O)C(CO)c3ccccc3)CC1C1OC12 (stereo not drawn),.,i,0.93,.,.,109,.
O=C1C2CCN(CC2)C1Cc1ccc(OCCOc2ccccc2)cc1 (stereo not drawn),-8,i,0.85,8,82,101,-0.8
CNC(=O)OCc1n(C)cc[n+]1C,-1,i,1,42,65,104,-0.3
Cc1cccnc1-n1c(-c2ccccc2)nc2ccccc2c1=O,-8,i,0.76,10,175,101,-4.6
CCN1CCN(c2ccc([N+](=O)[O-])cc2C(=O)OC)CC1,0,i,0.95,15,145,107,.
CN1CCN(c2ccc([N+](=O)[O-])c(SCCO)c2)CC1,2,i,0.98,8,92,98,.
CN(C)C(=O)NC(O)C(Cl)(Cl)Cl (stereo not drawn),2,i,0.96,-14,193,108,1.0
c1nc2nc3c(c(N4CCNCC4)n2n1)CCCC3,.,i,0.98,.,.,102,.
CN1CC(C(=O)c2ccc(F)cc2)C(c2c(F)cccc2Cl)C1 (stereo not drawn),7,i,0.81,.,.,99,.
Cc1ccc(C(=O)n2cc(CCN3CCS(=O)(=O)CC3)c3ccccc32)cc1,-4,i,0.8,-46,182,102,-3.1
COc1ccc2c(c1)c(C(=O)CN1CCN(C)CC1)c(C)n2Cc1ccccc1,-1,i,0.93,.,.,102,0.3
Cc1ccc2c(c1)C1CN(C)CCC1N2C(=O)c1ccco1 (stereo not drawn),1,i,1.3,.,.,114,-3.9
CCCC(C)C1(CC)C(=O)NC(=Nc2ccc(OC)cc2)NC1=O (stereo not drawn),3,i,1.1,.,.,91,-0.9
COC(=O)C1=CCCN(C)C1,0,i,0.89,20,175,13*,.
Cc1ccc(CC(=O)N2CCN(Cc3ccccc3)CC2)cc1,3,i,0.92,.,.,98,.
CCCCn1c(O)c(C=NC2CCCCC2N)c(=O)[nH]c1=O (stereo not drawn),0,i,1,-17,111,95,-3.1
CCC(=NCc1cc(OC)cc(OC)c1)c1c(O)n(C2CCCCC2)c(=O)[nH]c1=O,.,i,0.86,.,.,100,.
CC(C)Oc1cccc(C(=O)C2CCCN(Cc3ccon3)C2)c1 (stereo not drawn),3,i,1.2,.,.,95,.
O=C(Nc1ccccc1OC(=O)N1CCOCC1)N1CCOCC1,-12,i,0.95,-6,100,100,-0.2
Cc1ccc(Cn2nc(C)c(C=O)c2Cl)cc1,1,i,1,10,112,103,.
Cc1ccc(-n2c(C)cc(/C=C3\C(=O)NC(=O)N(C)C3=O)c2C)cc1C,-3,i,1,-38,169,104,0.7
# Other records follow:
SMILES,PKD1 kinase inh,HSV replic up,HSV replic up primary fold,Insulin prom inh,Insulin prom inh cell count,RGS16-Gao,GALR2 agonist
NC(Cc1nc2ccccc2[nH]1)c1ccc(Cl)cc1 (stereo not drawn),.,i,0.95,.,.,111,.
CC(C)(C)c1ccc(C(=O)C2CCCN(C3CCC3)C2)cc1 (stereo not drawn),1,i,0.93,.,.,113,.
CCN1CCN(Cc2nnnn2C(C)(C)C)CC1,-2,i,0.99,-54,72,94,-2.3
C/C(CC(c1ccccc1)c1c(O)c2ccccc2oc1=O)=N\NC(N)=S (stereo not drawn),-8,i,0.92,-57,109,105,-2.5
Cc1nc2cc(C(F)(F)F)ccc2n1C1CCN(Cc2nnnn2CCc2ccccc2)CC1,2,i,0.8,-412,87,92,-0.6
COc1cc2ccc(=O)oc2c2ccoc12,11,i,0.83,24,152,91,-1.7
Cc1cc(C=C2C(=O)NC(=S)NC2=O)c(C)n1-c1ccc2c(c1)OCO2,8,i,1.1,.,.,95,-0.6
CN1C(=O)C(=Cc2ccc(N3CCOCC3)o2)C(=O)N(C)C1=O,-11,i,1.2,-43,92,103,-0.1
CCCCC(=O)N/N=C/c1c(O)n(-c2cccc3ccccc23)c(=O)[nH]c1=O,.,i,1.2,.,.,102,.
COc1cc(/C=C/[N+](=O)[O-])ccc1O,-17,i,0.74,5,123,96,-2.0
O=C(C1CC(=O)N(C2CCCC2)C1)N1CCC2(CC1)OCCO2 (stereo not drawn),1,i,1,43,65,105,-1.9
Cc1c(Cl)cccc1NC(=S)N1CC2CC(C1)c1cccc(=O)n1C2 (stereo not drawn),-7,i,1,.,.,108,-2.5

# Molecules above containing a CF3 group:
SMILES,PKD1 kinase inh,HSV replic up,HSV replic up primary fold,Insulin prom inh,Insulin prom inh cell count,RGS16-Gao,GALR2 agonist
C=CCn1c(O)c(C(C)=Nc2cccc(C(F)(F)F)c2)c(=O)[nH]c1=O,.,i,0.98,.,.,102,.
CCN(c1ccc(C(O)(C(=O)OC)C(F)(F)F)cc1)S(=O)(=O)c1ccc(C)cc1 (stereo not drawn),10,i,0.98,20,154,106,-1.7
Cc1nc2cc(C(F)(F)F)ccc2n1C1CCN(Cc2nnnn2CCc2ccccc2)CC1,2,i,0.8,-412,87,92,-0.6
